# Bioassay records: PubChem BioAssay, National Center for Advancing Translational Sciences (NCATS)
# Six1-Eya2 inh – Six1/Eya2 interaction inhibition. AlphaScreen GST-Six1/His-Eya2 binding, biochemical; stronger effect = lower value; control for the full effect not named in the record. 360,000 tested, 0.56% active. Q15475+O00167. activity change, % (concentration not given with the values); in the data active = activity change below about -65%; inconclusive = about -30% to -65%; inactive = above about -30%; also: % is scaled to controls: 0 for no effect and ±100 for the full control effect
#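 Homogeneous AlphaScreen proximity assay pairing GST-Six1 with His-tagged Eya2 (added as 5X mix: 250 nM and 500 nM) in 50 mM Tris pH 8.0, 300 mM NaCl, 1 mM TCEP. Glutathione donor and nickel acceptor beads; 1 h, 37 °C, dark.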
# PINK1 expr mod – modulators of PINK1 expression. PINK1 immunofluorescence, high-content cytometry, 24 h. Potency, µM (top dose mostly 76.6 µM), for the others: at the highest dose activation (PINK1 increase), most hits filed as activators. 410,000 tested, 0.2% active. AID 624263; active = well fitted activation curve with a large enough effect; inconclusive = small, poorly fitted or top-dose-only effect; inactive = flat fitted curve, though single readings scatter; cell line not stated here;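 also: potency is read from the fitted curve at half-maximal effect; % of control where 0% means no effect; nearly all actives have a fitted effect of over 65% in size; a mitochondrial uncoupler was the plate control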
#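 A stable cell line was treated with compounds at 5 concentrations for 24 hours, with CCCP as control. PINK1 levels and mitochondrial localization were measured by immunofluorescence with mitochondrial, cell and nuclear markers after fixation, read by laser-scanning cytometry.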
# D2 ag – agonists of human D2 dopamine receptor (beta-arrestin) | DiscoveRx PathHunter D2 beta-arrestin, luminescence, 90 min; 100% = 57 uM dopamine signal | activation, % (test concentration not listed) | 360,000 tested, 0.084% active | AID 624465; in the data active = activation above about 40%; inconclusive = about 15% to 40%; inactive = below about 15%; also: compound concentration not given in the record; the text of the record calls up to 30% inactive
# Target sequence (P14416 whole entry, looked up): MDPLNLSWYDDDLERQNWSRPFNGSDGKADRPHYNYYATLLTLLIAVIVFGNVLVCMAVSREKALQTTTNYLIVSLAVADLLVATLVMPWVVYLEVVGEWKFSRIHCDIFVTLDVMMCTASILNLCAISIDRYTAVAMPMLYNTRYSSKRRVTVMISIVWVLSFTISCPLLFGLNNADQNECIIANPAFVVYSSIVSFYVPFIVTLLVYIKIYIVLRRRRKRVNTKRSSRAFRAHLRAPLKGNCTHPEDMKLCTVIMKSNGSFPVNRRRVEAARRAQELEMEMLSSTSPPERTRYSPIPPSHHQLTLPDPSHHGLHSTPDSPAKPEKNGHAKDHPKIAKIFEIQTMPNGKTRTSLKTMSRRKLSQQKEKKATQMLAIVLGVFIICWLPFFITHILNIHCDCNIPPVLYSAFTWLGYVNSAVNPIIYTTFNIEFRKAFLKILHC
#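 Agonist mode: compounds alone added to overnight-plated D2 PathHunter cells for 90 min at 37 C, with 57 uM final dopamine (EC100) defining full response. Beta-arrestin recruitment detected by chemiluminescent reagent, read after 1 h at ambient temperature.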
# TRPML1 inh – inhibitors of human TRPML1 channel | Q9GZU1 | TRPML1-inducible cells, Ca2+ dye fluorescence, FDSS; stronger effect = lower value; inhibition of EC80 agonist-evoked calcium signal | activity change, negative = inhibition, % (no concentration beside the values) | 390,000 tested, 0.02% active | AID 624415; in the data active means activity change below about -50%; inconclusive means about -30% to -50%; inactive means above about -30%;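 also: stimulus is agonist 54-4 at its EC80 concentration; % is scaled to controls: 0 for no effect and ±100 for the full control effect; compound concentration not given in the record; the text of the record puts the active cut at -80%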
# Target sequence (Q9GZU1 whole entry, looked up): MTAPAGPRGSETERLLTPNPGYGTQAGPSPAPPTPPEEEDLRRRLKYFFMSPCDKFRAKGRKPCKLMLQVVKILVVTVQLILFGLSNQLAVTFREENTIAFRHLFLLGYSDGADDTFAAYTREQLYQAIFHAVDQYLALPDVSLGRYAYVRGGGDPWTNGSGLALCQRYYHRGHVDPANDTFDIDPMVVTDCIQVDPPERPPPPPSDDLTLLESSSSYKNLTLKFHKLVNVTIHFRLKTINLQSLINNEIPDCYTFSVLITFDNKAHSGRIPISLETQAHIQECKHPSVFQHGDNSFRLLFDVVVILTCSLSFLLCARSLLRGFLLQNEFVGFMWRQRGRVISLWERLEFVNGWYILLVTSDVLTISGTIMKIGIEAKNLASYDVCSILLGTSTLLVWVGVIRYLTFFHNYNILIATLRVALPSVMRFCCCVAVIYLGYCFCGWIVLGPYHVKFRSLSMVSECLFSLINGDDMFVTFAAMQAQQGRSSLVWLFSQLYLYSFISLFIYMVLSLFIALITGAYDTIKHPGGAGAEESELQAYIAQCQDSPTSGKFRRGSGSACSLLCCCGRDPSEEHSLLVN
#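 Tet-induced TRPML1-DL cells loaded with Ca8 no-wash calcium dye were read kinetically on FDSS. Compound addition was followed by EC80 agonist 54-4 (4 uM final); inhibition was read over 110 s.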
# D2 potentiator – human D2 receptor positive allosteric modulation; P14416; DiscoveRx D2 beta-arrestin cells, luminescence, 90 min; 100% = 57 uM dopamine signal; potentiation, % (concentration not given with the values); 360,000 tested, 0.23% active; AID 624464; active = potentiation of 50% or more; inconclusive = 30% to 50%; inactive = 30% or less;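 also: compound concentration not given in the record; tested on top of an EC20 dose of dopamine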
#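 PathHunter D2 cells, attached overnight at 37 deg C, received compound in DMSO plus dopamine at EC20 (50 nM final) for 90 min at 37 deg C. Beta-arrestin recruitment was read as luminescence after 1 h with detection reagent at ambient temperature.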
# TRPML1 agonist – activates the human TRPML1 channel; Q9GZU1; TRPML1-expressing cells, Ca2+ dye fluorescence, FDSS; host cell line not named in the record; reference of the full effect not given here; activation, % (test concentration not listed); 410,000 tested, 0.12% active; AID 624414; in the data active = activation above about 50%; inconclusive = about 30% to 50%; inactive = below about 30%; also: 0% is about no effect; the text of the record puts the active cut at 80%
#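 Tet-induced TRPML1-DL cells, 1,500 per well, cultured overnight, were loaded with a no-wash Ca2+ dye for 45–90 min. Calcium fluorescence was recorded on the FDSS for 110 s after compound addition, before the EC80 agonist (4 uM 54-4) was added.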
# Active calls of the source: *; ? = inconclusive; / = not tested or not shown; & = joins results of further samples; [ ] = remark or other dose.
SMILES,Six1-Eya2 inh,PINK1 expr mod,D2 ag,TRPML1 inh,D2 potentiator,TRPML1 agonist
Cc1c(OC(C)C(=O)NC2CC(C)(C)NC(C)(C)C2)ccc2c3c(c(=O)oc12)CCC3 (stereo unspecified),6,3.2%,0.0,11,-10,0.3
CC1(C)CC(=O)C=C(NCCCNC2CCCCC2)C1,-2,0.4%,0.1,-11,3,-0.3
COC(=O)c1ccccc1NC(=O)c1ccccc1N(C)S(=O)(=O)c1ccccc1,0,-0.4%,-5.4,51,-4,0.2
Cc1ccc(S(=O)(=O)NCC(=O)N2CCC(C)CC2)cc1,3,1.3%,-2.7,8,-9,0.1
Cc1cccc(-n2cnc3c(c2=O)c2nc4ccccc4nc2n3Cc2ccco2)c1,-17,7.4%,-2.5,2,-4,0.2
CCOC(=O)Cc1c(C)c2c(C)nn(-c3ccccc3)c2oc1=O,2,11%,-1.1,-18,-4,0.1
O=C(NCCO)/C(=C\c1ccco1)NC(=O)c1ccco1,4,0.1%,6.4,-17,-2,0.7
Cc1n[nH]c(=O)c2c(NC(=O)CSc3nn(-c4ccccc4)c(=S)s3)oc(C)c12,14,-2.0%,-7.1,-5,-25,0.6
COc1ccc(-c2noc([C@@H]3O[C@H](CO)[C@H](O)[C@H](O)[C@H]3O)n2)cc1OC,1,2.3%,-4.9,/,-9,-0.4
Cc1ccc(-c2cc(-c3ccccc3)c(C#N)c(Br)n2)cc1,2,9.2%,1.2,53,-11,1.8
Cc1ccccc1NC(=S)NC(NC(=O)c1ccco1)C(Cl)(Cl)Cl (stereo unspecified),17,2.1%,-2.7,-1,-9,0.7
c1ccc2sc(SCSc3nc4ccccc4s3)nc2c1,12,0.6%,-3.7,-9,0,0.9
Cc1ccc(CSC2=NCCN2C(=O)c2ccco2)cc1,1,5.1%,-2.0,0,-8,1.0
CCCCN(C)S(=O)(=O)c1cc(-c2cc(C)no2)ccc1C,/,-0.7%,/,56,/,2.7
CN(c1ccccc1)S(=O)(=O)c1cccc(NC(=O)CCNC(=O)c2ccc([N+](=O)[O-])cc2)c1,-13,-0.4%,0.5,0,-11,1.9
O=C(NCCCN1CCN(c2ccccc2F)CC1)c1cc2c(Cl)nc3ccccc3c2s1,/,0.6%,/,-17,/,-0.1
Cn1c(SCc2nc3cc(C(=O)O)ccc3c(=O)[nH]2)nnc1C(F)(F)F,0,0.1%,-4.9,4,3,0.2
COc1ccccc1/C=N/NC(=O)C(=O)Nc1ccccc1OC(F)(F)C(F)F,0,4.0%,5.8,4,4,1.4
CCOc1ccc(N2CC(C(=O)N3CCCCCC3)CC2=O)cc1 (stereo unspecified),12,-0.7%,-4.4,10,-2,0.7
CC(C)NS(=O)(=O)c1ccc(OCC(=O)N2CCN(c3ccccc3F)CC2)cc1,/,0.0%,/,-8,/,0.9
CS(=O)(=O)N(Cc1ccc(Cl)cc1)c1ccc(C(=O)NCc2ccccn2)cc1,1,2.7%,-3.5,14,-4,2.1
COc1ccc(CN(C)Cc2ccccc2)c(OC)c1OC,0,2.2%,-3.9,1,-27,0.6
COc1ccc(S(=O)(=O)N2CCCCC2)cc1NC(=O)C1CC(=O)N(Cc2ccccc2)C1 (stereo unspecified),-6,-0.9%,-1.4,4,-4,0.2
CCOc1ccccc1C(=O)N(CN1CCCC1=O)c1cccc(Cl)c1,-4,4.8%[38.3 µM],-4.8,-6,-19,-0.8
CC1Cc2ccccc2N1C(=O)CSc1nnnn1C (stereo unspecified),4,1.2%,-3.9,-15,-14,0.0
Cc1n(Cc2ccccc2)c2ccccc2[n+]1Cc1ccccc1,0,2.0%,0.1,5,-8,0.7
O=C(CNC(=O)c1cnccn1)Nc1ccc(F)c(F)c1F,28,-1.1%,-5.2,-4,-12,-0.5
Cc1cccc(NS(=O)(=O)c2cccc(C(=O)Nc3cccc(C(=O)O)c3)c2)c1,4,2.2%,-1.6,/,?,/
COCc1cc(NCc2ccc(Cl)cc2)nc(C)n1,3,2.2%,0.6,/,-6,/
CCN(CC)C(=O)Cn1nc(-c2ccncc2)nc1SCC(=O)Nc1ccc(OC)cc1,-11,-2.4%,7.1,16,5,0.8
CCOc1ccc(NC(=O)CN(c2ccc(OCC)cc2)S(=O)(=O)c2c(C)[nH]c(=O)[nH]c2=O)cc1,-18,1.0%,-5.0,27,-7,-0.3
CCOC(=O)c1nc2c(=O)n(C)c(=O)n(C)c2n(C)c1=O,3,0.7%,1.4,4,-12,0.9
O=C(COc1ccccc1F)Nc1ccc2[nH]c(=O)[nH]c2c1,-7,-1.2%,-0.1,35,-9,-0.4
COc1ccc(NC(=O)COC(=O)c2ccncc2)c(OC)c1,-2,-0.3%,0.4,3,1,0.1
Cc1nc(=O)c(-c2ccccc2)c(C)n1-c1ccccc1O,7,1.6%,-2.5,7,3,-0.4
CCN(CC)c1ccc(C(=O)OCC(=O)N(C)Cc2ccccc2)cc1,-7,-0.3%,-3.2,9,-4,0.1
Cc1ccc(C(=O)N2c3ccccc3CC2C)o1 (stereo unspecified),-17,1.4%,-2.7,30,-21,-0.4
COc1ccc(-n2nc(C(=O)NCC(=O)NCCC3=CCCCC3)c3ccccc3c2=O)cc1OC,6,4.2%,11,3,10,-0.1
CCOC(=O)CCC(=O)NCc1ccc2c(c1)cc(C)n2C,-1,0.7%,-0.4,-6,2,3.8
CSc1ccc(S(=O)(=O)Nc2ccc(F)cc2)cc1,8,1.6%,-3.6,-1,-2,2.6
COc1cccc(C(c2nnnn2C(C)(C)C)N2CCN(C/C=C/c3ccccc3)CC2)c1OC (stereo unspecified),-27,13%,-4.5,-9,-12,29
Cc1[nH]c2ccc(C(=O)N3CCCC3)cc2c1C,-1,2.2%,0.9,5,-2,0.9
Cn1ncc(C(=O)N2CCN(c3ccccc3)CC2)c1C1CCN(C(=O)OC(C)(C)C)CC1,/,0.8%,/,-5,/,-0.1
CC(C)(C)c1ccc(C(=O)NCCc2csc3nc(-c4ccccc4F)nn23)cc1,/,2.5%,/,15,/,3.0
CCOc1ccc(CNC(=O)c2ccc3c(c2)N(CC)CCS3)cc1,-18,0.7%&0.3%,0.9,-5&11,-10,0.5&2.3
Nc1c(C(=O)O)ccc2c1C(=O)c1ccccc1C2=O,-28,-2.3%,-7.3,7,-15,0.0
CCCCCOc1ccc(OC(=O)c2ccncc2)cc1,35,-0.2%,-4.9,47,-3,2.2
COc1ccc(NC2=NCC(=O)N2Cc2cccs2)cc1,23,-1.4%,-2.3,20,3,3.1
CCN(CC(=O)Nc1ccc(Br)cc1F)CC(=O)NC1CCS(=O)(=O)C1 (stereo unspecified),1,-0.1%,-3.5,-17,-10,-0.7
COCCC(=O)N1CCC(Oc2ccc(C(=O)N3CCCCC3COC)cc2)CC1 (stereo unspecified),0,-0.9%,-2.9,2,-3,0.1
COC(=O)c1ccccc1NC(=O)c1ncoc1-c1ccco1,/,5.8%,/,-3,/,-0.5
CCOC(=O)Cc1cc(=O)n(-c2nc3ccccc3s2)[nH]1,-15,-0.9%,-4.1,-3,0,0.2
NC(=O)c1ncn([C@@H]2O[C@H](CNC(=O)[C@H](N)CSCc3ccccc3)[C@@H](O)[C@H]2O)n1,2,0.0%,1.0,-17,/,0.4
S=C(NCCN1CCOCC1)Nc1ccc(Nc2ccccc2)cc1,-12,1.2%,-3.8,-9,-5,-0.1
O=C(Nc1cccc(C(F)(F)F)c1)C(=O)N1CCCCC1,-7,3.1%,-4.7,-1,-10,0.6
COc1ccc(C(=O)NCC(=O)N/N=C/c2ccco2)cc1OC,2,2.9%,-3.5,2,-6,0.1
COc1ccc(CSc2nncn2C)cc1F,-9,-2.7%,-3.9,22,-3,2.6
CCOC(=O)Cc1csc(NC(=O)Nc2ccc(OC(F)(F)F)cc2)n1,-13,4.5%,-0.1,-6,10,-0.6
Cc1ccc(NC(=O)CSc2nc(=O)n(CCCN3CCOCC3)c3c2CCCC3)cc1F,6,0.0%,-2.4,1,-32,0.3
Cc1ccc(C(=O)NCC(=O)OCCCOC(=O)CNC(=O)c2ccc(C)c(C)c2)cc1C,1,-0.6%,-2.4,1,-12,3.1

# One compound at a time, from the list above. Order of values: Six1-Eya2 inh, PINK1 expr mod, D2 ag, TRPML1 inh, D2 potentiator, TRPML1 agonist
# `S=C(NCCN1CCOCC1)Nc1ccc(Nc2ccccc2)cc1` as listed: -12, 1.2%, -3.8, -9, -5, -0.1
# `Cc1ccc(C(=O)NCC(=O)OCCCOC(=O)CNC(=O)c2ccc(C)c(C)c2)cc1C` as listed: 1, -0.6%, -2.4, 1, -12, 3.1
# `NC(=O)c1ncn([C@@H]2O[C@H](CNC(=O)[C@H](N)CSCc3ccccc3)[C@@H](O)[C@H]2O)n1` as listed: 2, 0.0%, 1.0, -17, /, 0.4
# `COc1ccc(CSc2nncn2C)cc1F` as listed: -9, -2.7%, -3.9, 22, -3, 2.6
# `COC(=O)c1ccccc1NC(=O)c1ncoc1-c1ccco1` as listed: /, 5.8%, /, -3, /, -0.5

# Next part:
SMILES,Six1-Eya2 inh,PINK1 expr mod,D2 ag,TRPML1 inh,D2 potentiator,TRPML1 agonist
C=CCCCCCCCCC(=O)N1CCN(c2cc3c(cc2F)c(=O)c(C(=O)O)cn3CC)CC1,6,1.9%,4.3,/,0,/
O=C(N/N=C\c1cccc(Cl)c1)c1ccc(Cn2cccn2)o1,-17,5.0%,-1.9,16,-19,-0.5
CCOCCc1nn2c(=O)cc(COC(=O)c3ccccc3NC(=O)C3CCCCC3)nc2s1,/,2.4%,/,-6,/,2.4
CN(C)CCCOc1ccc(Cl)cc1Br,0,-1.0%[38.3 µM],0.1,2,-19,-0.1
CCSc1nnc(-c2ccccc2SC)o1,8,2.4%,-2.1,-1,-1,0.6
NC(=O)Cc1ccc(C(=O)c2ccc(F)cc2)s1,-13,-0.1%,2.2,-12,4,-0.6
CCCNC(=O)c1ccc(COc2ccc(C(C)(C)C)cc2)o1,6,2.2%,4.2,0,6,2.1
COc1ccc(C(=O)NCc2nnc(SCC(=O)NC3CCCCC3)n2C)cc1,8,1.0%,-5.2,10,-8,-0.6
CCOc1ccc(C2C(C(=O)NC)=C(C)Nc3nc4ccccc4n32)cc1OC (stereo unspecified),-8,-1.0%,-6.1,-2,-1,-0.7
COCCN(C(=S)Nc1ccccc1OC)C1CCN(C(C)=O)CC1,8,0.4%,-1.9,-4,-19,-0.4
O=C(Nc1ccccc1)c1cc(C2CCCCN2C(=O)CCCc2ccccc2)on1 (stereo unspecified),1,1.0%,-2.5,/,-10,-0.3
Cn1cnnc1SCCCN1C(=O)c2cccc3cccc(c23)C1=O,-6,3.4%,-0.2,8,-6,0.1
CCOc1ccccc1N=Cc1c(O)n(C)c(=O)n(C)c1=O,2,-0.9%,-0.5,16,-6,0.7
Fc1ccccc1CSc1ncnc2c1oc1ccccc12,3,9.1%,-1.0,-9,-7,1.5
CCOC(=O)NC(=O)c1cn(C(CC)CO)c(=O)[nH]c1=O (stereo unspecified),-1,0.7%,-21,-3,-2,-0.2
